B2AR ag: beta2AR agonists driving receptor internalization, primary screen, cell-based, FAP fluorogen, flow cytometry | Beta-2 adrenergic receptor (Homo sapiens), P07550 | AID 504454, 2011 | actives 0.43% (n = 340,000) | Am2.2-beta2AR cells; reference of the scale not given here | response, % (no concentration beside the values);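 active = response above a set limit, near 3 SD of response in nonfluorescent compounds, cut at about 42% in these data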;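 note: stock transfer was 100 nL into about 11 µL; a reference agonist was the positive control; negative values mostly stem from fluorescent compounds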
FGF22 binding: binders of human FGF22 protein, primary screen, FGF22 synaptogenesis inhibitor project, biophysical, thermal shift, single point | recombinant FGF22 thermal shift, SYPRO orange fluorescence; percent of sucrose octasulfate shift, DMSO zero | calls only at 9.99 µM | actives 1.5% (n = 340,000);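 active = melting point raised past a set limit in the mean and every replicate; three in four hits are not shown here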
Target sequence (Q9HCT0 whole entry, looked up): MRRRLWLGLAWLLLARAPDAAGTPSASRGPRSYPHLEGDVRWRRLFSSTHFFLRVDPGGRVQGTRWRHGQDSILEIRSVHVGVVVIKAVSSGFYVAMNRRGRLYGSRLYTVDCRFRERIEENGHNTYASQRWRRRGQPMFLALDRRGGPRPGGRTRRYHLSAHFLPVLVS
E coli growth: E. coli growth inhibition, primary screen, OD600; AID 1053175, 2014; actives 0.21% (n = 330,000); OD600 absorbance (concentration not given with the values); Escherichia coli growth, 23 h; active compounds read low;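 active = OD600 absorbance below the run mean of sample wells minus 3.6 SD, in any replicate, cut at about 0.56 in these data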;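 note: stock transfer was 300 nL into about 60 µL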
ALR H2O2 inh: inhibitors of human ALR sulfhydryl oxidase, primary screen, biochemical, H2O2 detection, HRP-luminol luminescence, single point | FAD-linked sulfhydryl oxidase ALR (Homo sapiens), P55789 | purified ALR, DTT oxidation | inhibition, % (test concentration not listed) | actives 3.8% (n = 290,000);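 active = mean and each replicate at 75% or more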;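 note: stock transfer was 7.5 nL into about 7.5 µL; 0% = neutral wells and 100% = wells with inactivated enzyme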
Target sequence (P55789 whole entry, looked up): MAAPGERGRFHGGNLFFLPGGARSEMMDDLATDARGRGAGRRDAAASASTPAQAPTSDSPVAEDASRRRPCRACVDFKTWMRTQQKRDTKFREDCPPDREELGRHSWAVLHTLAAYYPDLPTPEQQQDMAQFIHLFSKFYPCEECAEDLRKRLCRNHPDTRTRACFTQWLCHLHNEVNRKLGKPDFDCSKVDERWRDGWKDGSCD
rRNA inh HTS: reduced GFP signal of wild-type E. coli, primary screen, bacterial rRNA inhibitor project, GFP/RFP fluorescence, OD600, single point | E. coli WT GFP vs humanized-ribosome RFP mutants, 24 h; active compounds read low; DMSO median 0, no signal -100 | GFP signal change (wild-type ribosome), % (test concentration not listed) | actives 1.6% (n = 350,000);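 active = significant combined selectivity score with lowered wild-type GFP, culture density cut under 30%, mutant RFP and density less affected; inactive = any of these conditions unmet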; note: one replicate is shown; some compounds called inactive have numbers as strong as hits
HNF4A DNA FP: change in binding of human HNF4A to DNA, primary screen, biochemical, fluorescence polarization, FITC-DNA | Hepatocyte nuclear factor 4-alpha (Homo sapiens), P41235 | 1 h | activity change, % at 10 µM | actives 0.3% (n = 360,000); in the data active = activity change above about 30%, passing the limit was not always enough;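 note: controls were the assay level and a saturating level of protein; the project sought stronger binding though the title names inhibitors; some compounds called inactive have numbers as strong as hits; positive values seem to mean higher polarization but the record does not say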
Target sequence (P41235 whole entry, looked up): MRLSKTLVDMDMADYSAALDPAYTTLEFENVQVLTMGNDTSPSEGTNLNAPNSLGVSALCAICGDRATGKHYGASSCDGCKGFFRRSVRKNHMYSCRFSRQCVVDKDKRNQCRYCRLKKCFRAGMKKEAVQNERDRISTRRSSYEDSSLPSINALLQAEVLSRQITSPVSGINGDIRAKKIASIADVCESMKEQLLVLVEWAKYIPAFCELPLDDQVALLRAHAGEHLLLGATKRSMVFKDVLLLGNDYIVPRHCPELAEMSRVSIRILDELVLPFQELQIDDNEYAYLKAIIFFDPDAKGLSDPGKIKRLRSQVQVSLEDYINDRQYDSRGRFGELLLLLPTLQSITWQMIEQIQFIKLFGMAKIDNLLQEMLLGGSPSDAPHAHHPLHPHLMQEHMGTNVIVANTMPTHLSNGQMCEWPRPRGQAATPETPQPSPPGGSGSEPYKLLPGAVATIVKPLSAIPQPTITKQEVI
UCH37 DUB inh: inhibitors of human UCH37 deubiquitinase, primary screen, biochemical, Ub-AMC cleavage, fluorescence | purified proteasome/UCH37 | actives 0.33% (n = 330,000) | inhibition, % (concentration not given with the values) | Ubiquitin carboxyl-terminal hydrolase isozyme L5 (Homo sapiens), Q9Y5K5;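 active = mean of two replicates above 20%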;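 note: 0% = compound-free wells with enzyme and 100% = wells lacking proteasome; stock transfer was 100 nL into about 20 µL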
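assay system = human UCH37 enzyme supplied as purified proteasome complex | amount = proteasome at 0.15 nM in the dispensed enzyme solution | schedule = 30 min compound-proteasome preincubation then 25 min substrate reaction, room temperature | measured by = fluorescence, ex 355 nm, em 460 nm | benchmarks = no-proteasome wells (full inhibition) and compound-free wells (no inhibition)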
rRNA inh HTS OD600: further read-out of rRNA inh HTS, marked with its call; OD600 change, %; measured here: OD600 growth;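 optical density of the mix in the first replicate; 0 = DMSO median and -100 = no signal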
rRNA inh HTS RFP: second read-out of rRNA inh HTS, no call of its own (marks repeat the call); RFP signal change, %; measured here: RFP humanized mutant strains;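 first replicate; 0 = DMSO median and -100 = no signal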
* = called active by the depositor; i = inactive; nt = no result given. Some of the compounds tested, so the mix of outcomes need not match the whole.

The first 2 compounds, to show the layout:
Short keys: A = B2AR ag; B = FGF22 binding; C = E coli growth; D = ALR H2O2 inh; E = rRNA inh HTS; F = rRNA inh HTS OD600; G = rRNA inh HTS RFP; H = HNF4A DNA FP; I = UCH37 DUB inh
COc1ccc(OCC(=O)NCc2cccnc2)cc1
  A: 2; B: nt; C: 0.75; D: -6; E: nt; F: nt; G: nt; H: -4.2; I: 3.7
COc1ccc(CN2CCN(C(C)C(=O)N3CCc4ccccc43)CC2)cc1OC (stereo not drawn)
  A: 17; B: i; C: 0.64; D: 12; E: 4; F: 3; G: -0.1; H: -1.0; I: 3.9

All compounds of this part, repeating the preview:
Short keys: A = B2AR ag; B = FGF22 binding; C = E coli growth; D = ALR H2O2 inh; E = rRNA inh HTS; F = rRNA inh HTS OD600; G = rRNA inh HTS RFP; H = HNF4A DNA FP; I = UCH37 DUB inh
COc1ccc(OCC(=O)NCc2cccnc2)cc1
  A: 2; B: nt; C: 0.75; D: -6; E: nt; F: nt; G: nt; H: -4.2; I: 3.7
COc1ccc(CN2CCN(C(C)C(=O)N3CCc4ccccc43)CC2)cc1OC (stereo not drawn)
  A: 17; B: i; C: 0.64; D: 12; E: 4; F: 3; G: -0.1; H: -1.0; I: 3.9
O=C(O)C1CCN(S(=O)(=O)c2cccs2)CC1
  A: 1; B: i; C: 0.7; D: -9; E: 6; F: 5; G: -0.5; H: 4.2; I: 4.9
COCCn1c(=NC(=O)CCS(=O)(=O)c2ccccc2)sc2ccccc21
  A: 17; B: i; C: 0.73; D: 9; E: 9; F: 6; G: 1.0; H: 0.5; I: -4.9
O=S(=O)(c1cccc(C(F)(F)F)c1)N1CCN(c2cnccn2)CC1
  A: -7; B: i; C: 0.68; D: -7; E: 5; F: -3; G: 0.2; H: 0.8; I: -26
Cc1ccc(C(=O)C[n+]2cccc3cc(C)ccc32)cc1
  A: -3; B: i; C: 0.69; D: 4; E: 29; F: 20; G: 4.8; H: 0.6; I: -23
CC(NC(=O)C(=O)N1CCOCC1)C(c1cccs1)N1CCN(c2ccccc2)CC1 (stereo not drawn)
  A: 7; B: i; C: 0.67; D: 98*; E: 8; F: 8; G: 10.0; H: 1.1; I: -0.3
COc1ccc(-c2nnn(CC(=O)N3CCOCC3)n2)cc1
  A: 2; B: i; C: 0.67; D: -4; E: 7; F: 7; G: -0.7; H: 2.7; I: 4.7
COc1ccc2c(c1OC)C(=O)OC2Nc1nc(-c2ccc([N+](=O)[O-])cc2)cs1 (stereo not drawn)
  A: 0; B: i; C: 0.61; D: 5; E: 10; F: -3; G: -0.8; H: 6.4; I: 3.8
CCOC(=O)CC1C(=O)NCCN1C(=O)c1c(F)cccc1F (stereo not drawn)
  A: 5; B: nt; C: 0.72; D: -1; E: nt; F: nt; G: nt; H: -2.0; I: 2.0
O=C1CC(c2ccccc2)n2nc(NC(=O)c3ccccn3)nc2N1 (stereo not drawn)
  A: -8; B: nt; C: 0.63; D: -1; E: nt; F: nt; G: nt; H: 1.9; I: -1.5
CC#CC(=O)NCC1(N(C)Cc2ccccc2)Cc2ccccc2C1
  A: -2; B: i; C: 0.66; D: -1; E: -5; F: -3; G: -2.7; H: -0.3; I: 0.9
COc1ccc(Cc2c(-c3ccc(OC)c(OC)c3)nc3ccc(C)cn23)c(C)c1
  A: nt; B: i; C: nt; D: nt; E: -32*; F: -21*; G: 0.2*; H: 7.7; I: nt
CCOC(=O)C(C#N)=CN1CCNc2ccccc21
  A: 9; B: i; C: 0.69; D: nt; E: 0; F: -1; G: 0.4; H: 2.9; I: 7.5
CC(O)c1nc2ccccc2n1C/C=C/c1ccccc1 (stereo not drawn)
  A: -4; B: nt; C: 0.72; D: -30; E: nt; F: nt; G: nt; H: -1.5; I: 5.4
COc1ccc(N2C(=O)[C@H]3CCC=C[C@H]3[C@@H]2c2ccccc2Br)cc1
  A: -9; B: i; C: 0.66; D: nt; E: -34; F: -29; G: -6.3; H: 2.0; I: 3.3
CCCOC(=O)CCNc1n[nH]c(=O)[nH]c1=O
  A: -1; B: nt; C: 0.7; D: nt; E: nt; F: nt; G: nt; H: 1.8; I: 2.9
COC(=O)c1ccc(C(=O)NC2CCSc3ccccc32)cc1 (stereo not drawn)
  A: 1; B: i; C: 0.66; D: -3; E: 18; F: 7; G: -5.1; H: -1.7; I: 3.0
Cc1ccc(Cc2c(C)nc3nc(SCC(=O)NCCCN4CCCC4)nn3c2C)cc1
  A: 5; B: i; C: 0.67; D: -6; E: 5; F: 5; G: 5.8; H: 7.7; I: 2.0
COc1cccc(OCc2nc3ccccc3c(=O)n2N)c1
  A: -7; B: i; C: 0.66; D: 74; E: -15; F: -7; G: 5.6; H: 5.4; I: 4.9
O=C(OCc1ccc([N+](=O)[O-])cc1)C1CC(=O)N(Cc2ccccc2)C1 (stereo not drawn)
  A: 10; B: nt; C: 0.7; D: -8; E: -9; F: -5; G: -4.6; H: -3.4; I: 3.4
COCC(=O)NCc1nc2ccccc2n1Cc1ccccc1F
  A: 0; B: nt; C: 0.69; D: 14; E: nt; F: nt; G: nt; H: -1.4; I: 1.5
CCOC(=O)c1c(NC(=O)COC(=O)c2cnc(C)cn2)sc(C(=O)N(C)C)c1C
  A: -3; B: nt; C: 0.72; D: -3; E: 0; F: 2; G: -0.3; H: 2.5; I: 1.3
COc1ccccc1C(CNC(=O)CNC(=O)c1ccc(C)c(C)c1)N1CCCC1 (stereo not drawn)
  A: 0; B: i; C: 0.6; D: -3; E: 5; F: 4; G: -1.5; H: 2.2; I: -0.8
COc1ccc(S(=O)(=O)NCc2ccc(C(=O)N3CCc4ccccc4C3)cc2)cc1
  A: 7; B: i; C: 0.71; D: -6; E: -17; F: -26; G: -0.8; H: 0.7; I: 3.7
CCC(=O)N(CCc1ccccc1)Cc1cc2cc(OC)ccc2[nH]c1=O
  A: -6; B: i; C: 0.71; D: nt; E: 23; F: 4; G: -2.5; H: 2.4; I: -65
CCOc1ccc(C(=O)COC(=O)c2ccc(-n3cnnn3)cc2)cc1
  A: 5; B: i; C: 0.74; D: -4; E: 0; F: 10; G: -3.0; H: 2.6; I: 0.8
Cc1cccc(NC(=O)CC2C(=O)NC3CCCCC3N2C(=O)c2ccccc2Cl)c1 (stereo not drawn)
  A: 6; B: i; C: 0.68; D: -7; E: -2; F: 3; G: 6.1; H: -1.2; I: 1.4
CC1(c2nnnn2Cc2ccccc2)CCC(=O)N1Cc1cccs1 (stereo not drawn)
  A: nt; B: i; C: nt; D: nt; E: 4; F: 9; G: -3.0; H: -0.3; I: nt
CCCS(=O)(=O)N1CCCC(C(=O)N2CCN(C(=O)OCC)CC2)C1 (stereo not drawn)
  A: 9; B: nt; C: 0.66; D: -3; E: nt; F: nt; G: nt; H: -0.4; I: 2.1

Compound profiles, as listed above. Screens in order: B2AR ag	FGF22 binding	E coli growth	ALR H2O2 inh	rRNA inh HTS	rRNA inh HTS OD600	rRNA inh HTS RFP	HNF4A DNA FP	UCH37 DUB inh
`CCOC(=O)C(C#N)=CN1CCNc2ccccc21` is listed with 9	i	0.69	nt	0	-1	0.4	2.9	7.5
`CCC(=O)N(CCc1ccccc1)Cc1cc2cc(OC)ccc2[nH]c1=O` is listed with -6	i	0.71	nt	23	4	-2.5	2.4	-65

New compounds follow.
Short keys: A = B2AR ag; B = FGF22 binding; C = E coli growth; D = ALR H2O2 inh; E = rRNA inh HTS; F = rRNA inh HTS OD600; G = rRNA inh HTS RFP; H = HNF4A DNA FP; I = UCH37 DUB inh
Cc1nc(S/C(=C\c2ccc(OCc3ccccc3Cl)cc2)C(=O)O)n[nH]1
  A: -4; B: nt; C: 0.76; D: -4; E: nt; F: nt; G: nt; H: 1.8; I: 0.7
CCOc1ccc(C(=O)NNC2CC(=O)N(CCc3ccccc3)C2=O)cc1OC (stereo not drawn)
  A: -1; B: i; C: 0.69; D: -4; E: -4; F: 2; G: 5.1; H: 0.9; I: 3.6
CC(C)(C)NS(=O)(=O)c1cnc(Cl)c(Cl)c1
  A: 7; B: nt; C: 0.74; D: 3; E: nt; F: nt; G: nt; H: 0.9; I: 1.2
CCN1CCN(C(C(=O)NC2CCCC2)c2cc3c(cc2[N+](=O)[O-])OCO3)CC1 (stereo not drawn)
  A: -7; B: i; C: 0.68; D: -9; E: 0; F: 11; G: 1.6; H: -1.8; I: 0.5
COc1ccccc1/C=C/C(=O)NCC(=O)N1CCC(N(C)C2CCCC2)CC1
  A: -2; B: i; C: 0.72; D: nt; E: -5; F: 6; G: 0.2; H: 1.4; I: -12
Cc1cc(C(=O)N2CCc3c([nH]c4ccccc34)C2c2cccc(Cl)c2)nn1C (stereo not drawn)
  A: 5; B: i; C: 0.64; D: nt; E: -14; F: -10; G: 0.7; H: -2.9; I: -2.3
O=C(/C=C/Nc1ccc(Br)cc1F)c1ccccc1
  A: 3; B: i; C: 0.73; D: -1; E: -7; F: 9; G: 2.2; H: 1.9; I: -2.1
O=c1[nH]c(C2CCN(S(=O)(=O)c3ccc4c(c3)OCCO4)CC2)nc2c1nnn2Cc1c(F)cccc1Cl
  A: 5; B: i; C: 0.71; D: nt; E: -8; F: -3; G: 2.5; H: 2.1; I: 5.2
CCOc1ccccc1N(C(=O)c1ccco1)C(C(=O)NC1CCCC1)c1cccs1 (stereo not drawn)
  A: -5; B: i; C: 0.68; D: 1; E: -4; F: -12; G: 3.4; H: 2.7; I: 2.3
FC(F)(F)c1ccccc1NC(=S)Nc1cccc2cnccc12
  A: -5; B: i; C: 0.69; D: nt; E: 19; F: -5; G: 12; H: 0.2; I: 3.8
O=C(O)C(C1CCCCC1)C1(O)CCCC1 (stereo not drawn)
  A: -1; B: i; C: 0.67; D: nt; E: 17; F: 12; G: 0.8; H: 3.7; I: 1.4
Cc1ccc(C(=O)NNC(=O)c2ccc(NS(=O)(=O)c3cccs3)cc2)s1
  A: 1; B: i; C: 0.69; D: -4; E: 2; F: 7; G: 0.8; H: 1.5; I: -0.2
FC(F)(F)c1cccc(-c2ccc(-c3csnn3)o2)c1
  A: -20; B: nt; C: 0.77; D: 1; E: nt; F: nt; G: nt; H: -2.9; I: 1.4
C#CCN(C[C@@H]1[C@@H](OC(=O)NCC2CCCCC2)[C@@H](OC(=O)NCC2CCCCC2)CN(C(=O)OC(C)C)N1C(=O)OC(C)C)S(=O)(=O)c1ccc(C)cc1
  A: nt; B: i; C: nt; D: nt; E: 1; F: -4; G: -5.0; H: 0.8; I: nt
Cc1c(Br)c([N+](=O)[O-])nn1CC(=O)N1CCc2ccccc2C1
  A: 0; B: i; C: 0.72; D: -5; E: 0; F: 7; G: -0.5; H: 1.5; I: -17
Nc1ncc(-c2ccc(F)cc2)nc1N1CCN(CCO)CC1
  A: nt; B: i; C: nt; D: nt; E: 24; F: 24; G: 0.5; H: -4.1; I: nt
CCCCn1nnnc1NCc1cccnc1
  A: -4; B: nt; C: 0.79; D: 9; E: nt; F: nt; G: nt; H: -2.2; I: 3.0
CC(=O)NCCC(=O)Nc1ccc(C(N)=O)cc1
  A: 2; B: i; C: nt; D: -15; E: 12; F: 17; G: 6.9; H: 2.2; I: nt
